Screens: PubChem, National Center for Advancing Translational Sciences (NCATS)
A488 fluor = qHTS Assay for Spectroscopic Profiling in A488 Spectral Region | compound autofluorescence, A488 spectral region, dye equivalency; active compounds read high | max dye equivalency, M | actives 0.1% (n = 59,000); active = above 10 nM dye equivalent; inconclusive = 1 to 10 nM; inactive = 1 nM or less; about half of its hits are not listed in these tables;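 note: highest value over a series up to 38 µM; compound alone in buffer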
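Spectroscopic profiling in the A488 region: compounds in pH 8.0 Tris (100 mM), 15 min RT, CCD imaging with 480 nm excitation and 540 nm emission; responses normalized against A488 dye standards.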
Resorufin fluor = qHTS Assay for Spectroscopic Profiling in Resorufin Spectral Region | max dye-equivalent concentration, M | Compound fluorescence, resorufin region 547/598 nm, buffer; active compounds read high | actives 0.04% (n = 59,000) | AID 588, 2007; active = above 10 nM dye equivalent; inconclusive = 1 to 10 nM; inactive = 1 nM or less; a few of its hits are not listed in these tables; note: highest value over a series up to 38 µM
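Dye-equivalent concentration values derive from comparing each well's 547/598 nm fluorescence against resorufin standards included on every plate. Incubation was 15 min at room temperature in 100 mM Tris, pH 8.0.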
AID923 = qHTS Assay for Allosteric/Competitive Inhibitors of Caspase-1: Spectroscopic Profiling in AFC Spectral Region | compound fluorescence, AFC spectral region (405/520 nm); almost no hit is shown here | Potency, µM (series often up to 57.5 µM), for the others: at the highest dose fluorescence increase, most hits filed as activators | actives 1.1% (n = 75,000); active = well fitted activation curve with a large enough effect; inconclusive = small, poorly fitted or top-dose-only effect;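 note: potency is the fitted concentration of half-maximal effect; 0% is about no effect; scaled to a free AFC standard on each plate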
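Baseline compound fluorescence (AFC region, 405 nm ex/520 nm em) taken from the intercept of kinetic reads with 50 nM caspase-1 and 5 uM Ac-WEHD-AFC; normalized to an on-plate AFC standard curve; compounds titrated up to 57 uM.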
TSHR agonist = qHTS Assay for Agonists of the Thyroid Stimulating Hormone Receptor; actives 0.48% (n = 73,000); AID 926, 2007; HEK293-CNG-TSHR cells (CNG channel as cAMP sensor), membrane potential dye, cAMP; Thyrotropin receptor (Homo sapiens), P16473; Potency, µM (highest dose often 57.1 µM), for inactives: at the top dose activation, usual class: activators; active = well fitted activation curve of enough size with the parental cells flat; inconclusive = any curve in the parental cells; inactive = parental cells flat and receptor cells flat or falling; note: potency is the fitted concentration of half-maximal effect; % of control where 0% means no effect; weak receptor curves with flat parental cells got no call and are not listed
Target sequence (P16473 whole entry, looked up): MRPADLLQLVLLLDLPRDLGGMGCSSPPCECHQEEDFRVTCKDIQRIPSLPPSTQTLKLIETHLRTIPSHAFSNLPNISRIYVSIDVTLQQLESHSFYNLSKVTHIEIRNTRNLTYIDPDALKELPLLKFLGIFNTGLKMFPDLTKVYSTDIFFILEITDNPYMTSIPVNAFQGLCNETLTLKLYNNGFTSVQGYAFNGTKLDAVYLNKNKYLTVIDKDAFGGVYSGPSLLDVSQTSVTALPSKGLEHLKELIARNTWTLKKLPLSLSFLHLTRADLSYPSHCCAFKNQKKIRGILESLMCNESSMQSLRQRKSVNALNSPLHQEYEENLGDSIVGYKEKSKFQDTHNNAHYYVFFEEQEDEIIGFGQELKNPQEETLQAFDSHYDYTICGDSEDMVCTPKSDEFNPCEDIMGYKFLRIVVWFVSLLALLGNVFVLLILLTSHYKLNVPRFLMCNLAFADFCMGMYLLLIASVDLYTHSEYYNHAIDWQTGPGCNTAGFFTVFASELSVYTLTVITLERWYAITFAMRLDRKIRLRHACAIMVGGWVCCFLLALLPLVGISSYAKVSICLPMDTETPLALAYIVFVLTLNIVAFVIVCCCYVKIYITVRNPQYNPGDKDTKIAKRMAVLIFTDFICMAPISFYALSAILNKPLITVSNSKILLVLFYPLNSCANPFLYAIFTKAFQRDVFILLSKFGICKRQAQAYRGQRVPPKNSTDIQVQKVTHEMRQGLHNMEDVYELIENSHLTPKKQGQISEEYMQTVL
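cAMP rise detected as CNG-channel membrane depolarization by fluorescent dye (emission 590 nm), 30 min after compound, following 60 min dye loading containing 100 uM RO 20-1724 at room temperature. Cells: TSHR/CNG HEK 293, with parental CNG HEK 293 as control.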
A647 fluor = qHTS Assay for Spectroscopic Profiling in A647 Spectral Region. max dye-equivalent concentration, M. AID 592, 2007. 59,000 tested, under 10 active. Compound fluorescence, A647 channel (570/671 nm), Tris buffer; active means above 1 µM dye equivalent; inconclusive means 0.1 to 1 µM; inactive means 0.1 µM or less;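 note: values scaled relative to a standard on each plate; highest value over a series up to 38 µM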
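Compound fluorescence was measured in 100 mM Tris buffer, pH 8.0, after 15 min at room temperature, using 570 nm excitation and 671 nm emission filters. Signal was normalized to a per-plate Alexa 647 standard curve and expressed as dye-equivalent concentration at each compound concentration.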
An asterisk follows results filed as active; i = inactive; ? = inconclusive; . = no result given; [ ] = another dose, or the depositor's remark. Not all compounds are listed; count on the stated rates, not on these rows.

cpd	molecule	A488 fluor	Resorufin fluor	AID923	TSHR agonist	A647 fluor
1	Cc1nn(Cc2ccccc2Cl)c(C)c1NC(=O)c1noc2c1CCCCC2	i	i	-0.2%	19%	9.5e-09
2	N#Cc1ccccc1CSc1nc(O)cc(=O)[nH]1	i	i	-2.3%	3%	7.3e-09
3	COCCCN1C(=O)C(O)=C(C(=O)c2ccco2)C1c1ccccc1 (configuration not stated)	i	i	-1.2%	7%	1e-09
4	CC(=O)Nn1cc2c(=O)n(C)c(=O)n(C)c2c1	.	.	1.7%	-3%[11.4 µM]	.
5	CCOC(=O)C(Cc1ccccc1)NC(=O)CCc1c(C)nc2ncnn2c1C (configuration not stated)	i	i	0.6%	0%	3.7e-09
6	Cc1c(-n2c(CN3C(=O)c4ccccc4C3=O)nc3ccccc3c2=O)c(=O)n(-c2ccccc2)n1C	.	.	-0.3%	-2%	.
7	CSc1nc(-c2ccccc2)nc(N2CCCC2)c1C(C)=O	i	i	-0.5%	23%	1.3e-08
8	COc1ccc2[nH]c(C)c(C(=O)CN3CCc4cc(OC)c(OC)cc4C3)c2c1	i	i	.	.	1.3e-08
9	O=C(C1CC(=O)N(c2ccccc2)C1)N1CCN(C2=NS(=O)(=O)c3ccccc32)CC1 (configuration not stated)	i	i	-0.1%	-3%	3.1e-08
10	c1ccc(-n2ncc3c(NCc4cccs4)ncnc32)cc1	.	.	-2.2%	2%	.
11	CCOc1cc(C2C(C(=O)OC)=C(C)N=C3SC(C)C(=O)N32)ccc1OC(C)=O (configuration not stated)	i	i	0.9%	4%	1e-09
12	CCOc1nc2ccccc2nc1NS(=O)(=O)c1ccccc1	i	i	-2.1%	6%	1.1e-08
13	COC(=O)c1ccccc1NC(=O)CSc1nnnn1-c1ccc(C)cc1C	i	i	3.8%	10%	1e-09
14	C[N+](C)(C)c1ccc([C@H](N)C(=O)O)cc1	i	i	3.2%[11.5 µM]	-1%[11.4 µM]	8.2e-09
15	COc1ccccc1-c1c(C)oc2cc(OC(=O)c3ccco3)ccc2c1=O	i	i	-2.0%	6%	1e-09
16	COc1ccc(-n2c(=O)c(-c3cc(F)cc(F)c3)nc3cnc(N(C)C)nc32)cc1	i	i	?	4%	2.7e-09
17	N#Cc1c(N)[nH]c(=S)c(C#N)c1-c1ccccc1	.	.	1.9%	0%	.
18	COCCn1c(=S)[nH]c2cc(C(=O)N3CCc4ccccc43)ccc2c1=O	i	i	-1.2%	?	3.9e-09
19	COc1ccc(-c2[nH]ncc2-c2ccc(Cl)cc2)c(O)c1	i	i	0.1%	-6%	2.5e-08
20	c1ccc(N2CCN(CCc3nnc4n3CCCCC4)CC2)cc1	i	i	-1.4%	2%	1.1e-08
21	O=C(CSC1=NCCN1)c1ccccc1	i	i	3.9%[11.5 µM]	-2%[11.4 µM]	3.9e-09
22	N#Cc1ccc(CSc2nnc(-c3cnccn3)o2)cc1	i	i	-1.5%	-2%	5.1e-09
23	O=C(CN1CCN(c2nc(-c3ccccc3)cs2)CC1)NCc1ccc2c(c1)OCO2	i	i	1.2%	?	1e-09
24	COCCCNC(=O)CCCn1c(=O)[nH]c2ccccc2c1=O	i	i	-0.2%	2%	4.6e-09
25	CCOc1ccc(C2CC(=O)NC3=C2C(=O)CCC3)cc1Cl (configuration not stated)	i	i	-1.7%	8%	4.7e-08
26	COc1ccc(N2CCN(S(=O)(=O)c3cccc(C(F)(F)F)c3)CC2)cc1	i	i	-2.9%	-21%	4.9e-09
27	Nc1c2ccccc2nc2c(O)cccc12	i	i	-1.8%[25.7 µM]	-8%[25.6 µM]	2.5e-08
28	CCC(CC)C(=O)NCCc1cc2cc(C)c(C)cc2[nH]c1=O	.	.	-1.5%	?	.
29	O=C(Cn1c(SCC(=O)NC2CCCC2)nnc1-c1ccncc1)Nc1ccc2c(c1)OCO2	i	i	2.8%	-1%	1e-09
30	COC(=O)C1=C(C)N(CCC2=CCCCC2)C(=O)C1	i	i	1.2%	4%	4.4e-09

Four of the compounds above, with values under each structure.
Second line of a record: A488 fluor, Resorufin fluor, AID923, TSHR agonist, A647 fluor
15. COc1ccccc1-c1c(C)oc2cc(OC(=O)c3ccco3)ccc2c1=O
  i, i, -2.0%, 6%, 1e-09
16. COc1ccc(-n2c(=O)c(-c3cc(F)cc(F)c3)nc3cnc(N(C)C)nc32)cc1
  i, i, ?, 4%, 2.7e-09
17. N#Cc1c(N)[nH]c(=S)c(C#N)c1-c1ccccc1
  ., ., 1.9%, 0%, .
18. COCCn1c(=S)[nH]c2cc(C(=O)N3CCc4ccccc43)ccc2c1=O
  i, i, -1.2%, ?, 3.9e-09

(listing goes on)
cpd	molecule	A488 fluor	Resorufin fluor	AID923	TSHR agonist	A647 fluor
31	Cc1cc(C(=O)NCc2ccccc2)c(=O)[nH]c1C	.	.	5.3%	12%	.
32	CCOC(=O)c1sc(=S)n(-c2cc(F)ccc2F)c1N	i	i	-0.9%	-41%[inhibitor]	4.3e-09
33	CCCC(c1cc(C(C)(C)C)c(O)cc1C)c1cc(C(C)(C)C)c(O)cc1C	i	i	-4.0%[11.5 µM]	4%[11.4 µM]	2e-08
34	COc1ccccc1C(=O)Nc1cc(-c2nn3c(C)nnc3s2)ccc1C	.	.	-1.2%	9%	.
35	CCOC(=O)c1sc2nc3c(cc2c1N)COC(C)(C)C3	i	i	9.8%	-25%	6e-09
36	Cc1cc(-c2ccccc2)nc(N2CCN(c3ccccn3)CC2)n1	i	i	-0.2%	?	1e-09
37	C=C(C)c1nc(N)nc(N)n1	i	i	0.2%	0%	4.3e-08
38	CCOC(=O)N1CCN(C(=O)c2ccc3c(c2)NC(=O)C(N2CCOCC2)S3)CC1 (configuration not stated)	i	i	0.9%	-2%	1e-09
39	CCCCSc1nnc2nc(C)cc(C)n12	i	i	-0.3%	-3%	3.2e-09
40	COc1ccc(S(=O)(=O)N2CCN(c3ccc(C)cc3C)CC2)cc1OC	.	.	-0.3%	46%	.
41	CCOC(=O)c1oc2c(CN3CCCCC3C)c(O)ccc2c(=O)c1-c1ccc(OC)c(OC)c1 (configuration not stated)	i	i	-1.1%	5%	1e-09
42	O=C(COc1ncnc2ccc(Br)cc12)Nc1ccc(N2CCOCC2)cc1	i	i	0.1%	1%	3.5e-08
43	Cc1ccc(CNC(=O)C2c3ccccc3C(=O)N3CCc4ccccc4C23)o1 (configuration not stated)	i	i	0.6%	?	6.9e-09
44	CCOC(=O)c1sc(=S)n(CC)c1N	i	i	0.1%	-12%	7.6e-09
45	CN(Cc1ccccc1)C(=O)c1ccccc1NC(=O)c1ccco1	i	i	0.8%	0%	1.4e-08
46	CC(C)(Oc1ccc(Cl)cc1)C(=O)OCC(=O)N1CCCC1	i	i	0.0%	2%	1e-09
47	O=C(O)C12CC3CC(C1)CC(n1cnc(Cl)n1)(C3)C2	i	i	-1.8%	0%	2e-09
48	OC(COc1ccc2c(c1)OCO2)CN1CCc2ccccc2C1 (configuration not stated)	i	i	-1.1%	17%	1e-09
49	Cc1cc(C)c(NC(=O)CCCOC(=O)C2=COCCO2)c(C)c1	i	i	0.6%	8%	5e-09
50	COc1ccc([C@@H]2OC[C@]3(COC(C)=O)[C@H](C)C=C(C)[C@@H]2[C@H]3C)cc1	i	i	.	?	2.3e-09
51	O=S(=O)(c1cccc(F)c1)N1CCN(Cc2ccc3c(c2)OCO3)CC1	i	i	0.9%	3%	2.3e-08
52	Cc1ccc(-c2nnn(CC(=O)N(Cc3cccs3)C(C(=O)NC(C)(C)C)c3ccco3)n2)o1 (configuration not stated)	i	i	0.7%	?	5e-09
53	Cc1cccc(NC(=O)CCNS(=O)(=O)c2cccc3nsnc23)c1	i	i	-1.0%	-7%	1e-09
54	O=C(c1ccccc1CCc1ccccc1)N1CCOCC1	i	i	-0.1%	?	1e-09
55	CN1/C(=C\C(=O)COC(=O)C2COc3ccccc3O2)C(C)(C)c2ccccc21 (configuration not stated)	i	i	3.9%	16%	6e-09
56	Cc1cc(C)n2nc[n+](C)c2n1	i	i	0.1%	2%[11.4 µM]	1e-09
57	CCn1c(CCNC(=O)c2cccs2)nnc1SCC(=O)NC1CCCCC1	i	i	0.8%	5%	3.8e-08
58	CCC(CCC(=O)Nc1ccn(-c2ccccc2)n1)C(=O)O (configuration not stated)	i	i	-0.7%	-3%	4.2e-08
59	CCc1cc(C(=O)COc2ccccc2F)c(O)cc1O	.	.	5.4%	6%	.
60	CCSc1nc2ccccc2n1Cc1nc(N)nc(N(C)C)n1	i	i	-1.3%	8%	1.7e-08
61	CCCC(=O)Nc1cc2c(cc1C(=O)c1ccccc1)OCCO2	i	i	-1.1%	1%	1e-09
62	CC(C)=O	.	.	4.9%	7%	.
63	Cc1cc(C)nc(SCc2nnc(SCC(=O)N3CCCc4ccccc43)n2C)n1	i	i	-3.1%	4%	2.6e-08
64	COc1ccc2[nH]cc(CCNc3cc(-c4cccnc4)ncn3)c2c1	i	i	3.7%	-4%	1e-09
65	CC1(C)CC(N2CCN(c3ccccc3)CC2)=CC(=[N+]2CCCC2)C1	i	i	-1.1%	?	4.8e-09
66	CS(=O)(=O)Cc1nc2ccccc2oc1=O	i	i	0.9%	-6%	1e-09
67	Cc1cc(C(=O)NCCC2=CCCCC2)no1	i	i	-1.6%	-4%	2.4e-08
68	COc1ccc(S(=O)(=O)NCc2ccco2)cc1-c1nnc2c3ccccc3c(C)nn12	i	i	-1.7%	.	1e-09
69	CCc1c(C#N)c(N)nc(SCC(=O)OCc2ccccc2)c1C#N	.	.	1.2%	?	.
70	COc1ccc(S(=O)(=O)Nc2ccc3c(c2)OCCO3)cc1Cl	i	i	-0.3%	4%	5.3e-09
71	Cc1ccc(NC(=O)N(C2=NCC(C)S2)c2ccccc2)cc1 (configuration not stated)	i	i	0.1%	10%	1e-09
72	Cc1cc(C)n2nc(S(=O)(=O)NCCc3ccccc3)nc2n1	.	.	-0.1%	-6%	.
73	O=S(=O)(/N=C/c1ccccc1O)c1cccs1	i	i	-0.8%	5%	1e-09
74	COc1ccc(NC(=O)C2CCCN(c3c4c(nc5ncnn35)CCC4)C2)cc1OC (configuration not stated)	i	i	3.0%	2%	3.7e-08
75	COC(=O)CSc1nnc([C@H](Cc2ccccc2)NC(=O)OC(C)(C)C)o1	i	i	-0.5%	-4%	1e-09
76	Cc1ccccc1NC(=O)CSc1nc(Nc2ccccc2)nc(N2CCOCC2)n1	i	i	1.2%	?	9e-09
77	CC(=O)OCCCCON1C(=O)c2ccccc2C1=O	i	i	1.7%	-1%	4.1e-09
78	C=CCn1c(=O)c(C(=O)NCCN(CC)CC)c(O)c2ccccc21	i	i	.	.	2.7e-08
79	O=C(O)C1CCCNC1 (configuration not stated)	.	.	1.5%	0%	.
80	Cc1ccc(-c2nc(CS(=O)(=O)CC(=O)NC3CCCCC3C)c(C)o2)cc1 (configuration not stated)	.	.	-2.1%	21%	.
81	CCOc1ccc(-c2cc(CCCC(=O)NCCc3ccc(OC)c(OC)c3OC)no2)cc1	i	i	1.3%	12%	2e-08
82	O=C(Nc1cnc2ccccc2c1)N1CCCCC1	.	.	0.2%	3%	.
83	Cc1nc(SCC(=O)Nc2c(C)n(C)n(-c3ccccc3)c2=O)n[nH]1	i	i	0.2%	-1%	4.4e-09
84	COC(=O)C1=C(CN2CCCc3ccccc32)NC(=O)NC1c1ccc(F)cc1 (configuration not stated)	i	i	3.0%	-4%	1e-09
